HCMV NEC inh: inhibitors of HCMV UL50-UL53 nuclear egress complex interaction | HTRF UL50-UL53 interaction, normalized percent inhibition | inhibition, % (no concentration beside the values) | actives 0.15% (n = 190,000) | AID 1918969;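 active = both replicates at 50% or more, plus weaker picks with an unusually low signal ratio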;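 also: stock transfer was 100 nL into about 20 µL; 0% = negative control wells and 100% = wells with untagged competitor protein; inactives centre near -12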
Sa growth 42C: inhibitors of Staphylococcus aureus growth at 42 °C | S. aureus RN4220 growth, OD600, 20 h; active compounds read low | relative growth, % (concentration not given with the values) | actives 0.53% (n = 170,000) | AID 720641;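 active = growth at 42 °C up to 50% and 20 or more points under that at 30 °C, or under 10% at both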;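 also: 300 nL library stock went into each well; scaled to the means of positive and negative controls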
GIV-Gai inh: GIV-Galpha-i interaction inhibition | Galpha-i3/FITC-GIV peptide fluorescence polarization, 90 min; active compounds read low; scaled: aluminum fluoride 0%, vehicle 100% | percent of control (FP), % (no concentration beside the values) | actives 0.42% (n = 210,000) | AID 1224905;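 active = replicate mean at 85% of control or lower, very high polarization wells dropped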;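 also: wells of about 15 µL received 100 nL stock; the first replicate is given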
Target sequence (P08753 whole entry, looked up): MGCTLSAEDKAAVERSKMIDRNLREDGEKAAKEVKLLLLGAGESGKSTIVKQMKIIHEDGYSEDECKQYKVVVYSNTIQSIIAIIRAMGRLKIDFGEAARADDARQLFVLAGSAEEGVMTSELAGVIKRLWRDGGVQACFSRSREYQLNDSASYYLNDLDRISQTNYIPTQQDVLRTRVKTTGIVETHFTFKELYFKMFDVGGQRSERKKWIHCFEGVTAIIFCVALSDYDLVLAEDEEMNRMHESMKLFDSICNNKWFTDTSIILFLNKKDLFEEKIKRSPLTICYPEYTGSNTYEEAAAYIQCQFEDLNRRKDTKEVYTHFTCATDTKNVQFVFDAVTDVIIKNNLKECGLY
Sa growth 42C second temp: further read-out of Sa growth 42C, marked with its call; relative growth, %; measured here: growth at 30 °C;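 optical density after 20 h as mean of two plates; 100% = untreated growth and lower means inhibition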
An asterisk follows results filed as active; / = not tested or not shown; & = joins results of further samples.

Fields – HCMV NEC inh	Sa growth 42C second temp	GIV-Gai inh	Sa growth 42C
COc1ccc(Cl)cc1N/C=C(\C#N)c1nc(-c2cc3cc(Br)ccc3oc2=O)cs1
 : -19	/	99	/
Cc1cc(C(=O)Nc2ccccc2)oc(=O)c1
 : -64	53	100	89
COC(=O)c1cc2sc(Cl)cc2n1Cc1c(C)cc(C)cc1C
 : -1	88	103	109
C=Cc1ccc(COc2ccc3oc(-c4ccccc4)c(C(=O)OCC)c3c2)cc1
 : -35	83	103	99
CCN(c1ccccc1)S(=O)(=O)c1cc(OC)ccc1OC
 : -10	91	108	99
COc1ccc(C2CC(c3ccccc3)=NN2C(=O)c2ccc(Br)o2)cc1 (stereo unspecified)
 : -8	/	106	/
Cc1ccc(N/C(=C\C(=O)c2ccccc2)C(=O)O)cc1
 : -2	97	/	91
Cc1ccc2nc(-c3cccs3)c(Nc3ccc4c(c3)OCCO4)n2c1
 : 15	90	105	98
CCc1ccc(NC(=O)CCn2nc(-c3ccccc3OC)c3c(C)cc(C)nc32)cc1
 : -8	75	101	94
CCN(CC)S(=O)(=O)c1ccc(N(C)CCc2ccc(OC)c(OC)c2)nc1
 : -11	91	/	104
COc1ccc(N2C(=O)CSC2=S)cc1
 : -2	100	103	82
CCOc1cccc2cc3c(=O)n(-c4ccc(Br)cc4)nc-3oc12
 : -3	97	101	110
CCCCN1CCn2c(nc3cc(NC(=O)C(C)(C)C)ccc32)C1
 : -6	/	100	/
CC(C)Oc1ccc(CNC(=O)C2CCCN(S(=O)(=O)c3ccc4c(ccn4C)c3)C2)cc1 (stereo unspecified)
 : /	103	105	106
COc1ccc(-n2ncc3c(N(Cc4ccccc4)Cc4ccccc4)ncnc32)cc1
 : /	86	106	124
O=C(CC1N=C2c3ccccc3N=C(SCc3cccc(Cl)c3)N2C1=O)NC1CCCCC1 (stereo unspecified)
 : /	98	101	89
CC(C)(C)c1ccc(C(=O)N2N=C(c3ccccc3)CC2(O)C(F)(F)F)cc1 (stereo unspecified)
 : -21	/	104	/
Cc1nc2nc(SCC(=O)NC3CCC(C)CC3)nn2c(C)c1Cc1ccccc1Cl (stereo unspecified)
 : /	51	97	75
COc1cccc(CNC(=O)CCn2cccn2)c1
 : /	88	99	98
O=C(CSc1nc2sc3c(c2c(=O)[nH]1)CCCC3)N(CCO)CCO
 : 15	/	104	/

Given as a markdown table: entries from further up.
| compound | HCMV NEC inh | Sa growth 42C second temp | GIV-Gai inh | Sa growth 42C |
| --- | --- | --- | --- | --- |
| COc1ccc(N2C(=O)CSC2=S)cc1 | -2 | 100 | 103 | 82 |
| CCOc1cccc2cc3c(=O)n(-c4ccc(Br)cc4)nc-3oc12 | -3 | 97 | 101 | 110 |
| CCCCN1CCn2c(nc3cc(NC(=O)C(C)(C)C)ccc32)C1 | -6 | / | 100 | / |
| CC(C)Oc1ccc(CNC(=O)C2CCCN(S(=O)(=O)c3ccc4c(ccn4C)c3)C2)cc1 (stereo unspecified) | / | 103 | 105 | 106 |
| COc1ccc(-n2ncc3c(N(Cc4ccccc4)Cc4ccccc4)ncnc32)cc1 | / | 86 | 106 | 124 |
| O=C(CC1N=C2c3ccccc3N=C(SCc3cccc(Cl)c3)N2C1=O)NC1CCCCC1 (stereo unspecified) | / | 98 | 101 | 89 |

Next results:
Fields – HCMV NEC inh	Sa growth 42C second temp	GIV-Gai inh	Sa growth 42C
CC(=O)Oc1ccc(/C=C2\N=C(c3cc([N+](=O)[O-])ccc3Cl)OC2=O)cc1OC(C)=O
 : -66	/	104	/
COc1ccc(Nc2ccc(-c3nc(-c4ccccc4)no3)nn2)cc1
 : -7	/	99	/
C=CCn1c(-c2ccccc2)c[nH]c1=S
 : -24	94	97	99
Cc1c(Nc2nc3nonc3nc2Nc2cccc(Cl)c2)c(=O)n(-c2ccccc2)n1C
 : -20	/	104	/
O=C(Nc1cnc2ccc(Cl)cn2c1=O)c1ccccc1
 : -101	/	98	/
O=C(CSc1nc2c([nH]c3ccccc32)c(=O)n1-c1ccc(F)cc1)Nc1ccc2c(c1)OCO2
 : /	83	99	103
Cc1ccc(-c2noc(CSc3nc4c(oc5ccccc54)c(=O)n3CC3CCCO3)n2)cc1 (stereo unspecified)
 : -28	/	106	/
CC1(C)CC(=O)C(C2(O)C(=O)c3ccccc3C2=O)C(=O)C1
 : 82*	79	66*	85
CC(C)(CO)NC(=O)C(Cc1ccccc1)N1C(=O)c2ccccc2C1=O (stereo unspecified)
 : -40	81	97	89
CCN1CCN(C(=O)c2cccc(S(=O)(=O)N(C)c3ccccc3)c2)CC1
 : 5	90	/	101
O=C(CSc1ncccn1)N1N=C(c2cccs2)CC1c1ccco1 (stereo unspecified)
 : -26	99	/	91
CCOC(=O)c1ccoc1CSCc1ccc(C(=O)OC)o1
 : 0	103	/	85
O=c1c(NCc2ccc(F)cc2)nccn1-c1ccc2c(c1)OCO2
 : -15	/	98	/
NS(=O)(=O)c1cc2c(cc1Cl)NC=NS2(=O)=O
 : -14&0&-28&-58&-49	89	100	94
COc1ccc(CNC(=O)c2ccc(NC(=O)N3CC4CCCN4c4ccccc43)cc2)cc1 (stereo unspecified)
 : 5	91	110	99
CCc1ccc(NC(=O)N(Cc2cn(CC)c3ccccc23)C2CCCCC2)cc1
 : -19	91	105	97
CC1CCC(NC(=O)C2(C)Cc3ccccc3C(=O)N2CCc2ccccc2)CC1 (stereo unspecified)
 : -3	/	101	/
CCCCn1c(SCC(N)=O)nc2c1c(=O)n(C)c(=O)n2C
 : 0	99	104	97
CN1CCN(/C=N/c2nc3c(s2)CCCC3)CC1
 : -25	89	/	102
O=C(O)CCc1cn(CCC(=O)O)nc1-c1ccc(Cl)cc1
 : -3	90	/	103
Cc1ccc2c(C)c(C(=O)N(Cc3ccco3)Cc3ccccc3Cl)oc2c1C
 : /	82	100	80
NCc1cn(-c2ccccc2)nc1-c1ccccc1
 : -2	95	/	86
O=C(NC1CCCC1)[C@H](CSCc1ccccc1)N1Cc2ccccc2C1=O
 : /	95	102	99
O=C1CN(C(=O)COC(=O)/C=C/c2ccco2)c2ccccc2N1
 : -44	72	/	69
COC(=O)/C=C1/C(=O)N(C(C)=O)c2ccccc21
 : -29	40	103	94
CC1=C(C(=O)OCCOc2ccccc2)C(c2coc3ccc(Cl)cc3c2=O)C2=C(CCCC2=O)N1 (stereo unspecified)
 : -18	/	98	/
COc1cc(C2NCCc3c2[nH]c2ccccc32)ccc1OC(C)C (stereo unspecified)
 : -10&-14	96	97	114
O=C(O)CSCC(=O)c1ccccc1
 : -9	84	100	98
CCSc1cc(CC)c(C#N)c2nc3ccccc3n12
 : -14	93	/	92
O=C(COC(=O)c1ccccn1)Nc1cccc(Cl)c1
 : -14	84	/	98
c1ccc(CNc2nc(-c3ccccc3)no2)cc1
 : -15&-3	79	102&103	97
NCCCc1ccc(Cl)cc1
 : 5	102	105	96
O=C(Oc1ccc(Cl)cc1)c1cc(-c2ccc3c(c2)OCCO3)on1
 : 14&-15	91	102&100	97
Cc1sc2c(c1C)CN(Cc1ccco1)CN2C(=O)c1ccccc1
 : /	86	103	106
COc1ccc2c(=O)c(-c3ccc(F)cc3)coc2c1
 : -16	91	/	101
Cn1c(SCC(=O)Nc2ccccc2F)nc2c(sc(=S)n2-c2ccccc2)c1=O
 : -28	/	100	/
O=S(=O)(Cc1ccccc1)NCc1csc(-c2cccs2)n1
 : -30	96	98	113
CCc1ccc(Nc2nc3ccccc3nc2NS(=O)(=O)c2ccc(C)cc2)cc1
 : /	86	103	117
NS(=O)(=O)c1ccc(CNC(=O)COC(=O)c2ccccn2)cc1
 : -29	90	/	94
COc1ccc(-c2nc3ccccc3c(=O)n2NCc2cc(OC)c(OC)c(OC)c2)cc1OC
 : -20	/	102	/
NS(=O)(=O)c1ccc(NC(=O)CCn2c(=O)oc3ccccc32)cc1
 : -12	86	108	106
CC(C)CN(CC(C)C)S(=O)(=O)c1ccc(N)cc1
 : -3	95	105	96
O=C(Cn1ncn2c(cc3ccccc32)c1=O)NCc1ccc(F)cc1
 : -31	86	94	120
CC1CN(CC(=O)N2CCN(c3ncccn3)CC2)c2ccccc2S1 (stereo unspecified)
 : -18	/	107	/
COC(=O)c1cc(OC(=O)c2ccc(Cl)cc2)n(C(C)(C)C)n1
 : -6	91	/	95
Cc1ccc2c(c1)-c1onc(C(=O)N(C)c3cccc(C(F)(F)F)c3)c1CO2
 : /	114	104	87
Cc1cc(NC(=O)c2ccc(C)c(C)c2)n(-c2ncnc3c2cnn3-c2ccccc2)n1
 : -36	/	100	/
COc1ccc(NS(=O)(=O)c2nnc(NC(=O)c3ccccc3F)s2)cc1
 : -3	70	102	126
CCCSc1nc2c(c(=O)[nH]1)C(c1cccc(OC)c1)C(C(=O)OC)=C(C)N2 (stereo unspecified)
 : 5	/	105	/
O=C(Nc1ccc2c(c1)COC2=O)c1ccc(F)cc1
 : -11	71	/	74

Further compounds follow:
Fields – HCMV NEC inh	Sa growth 42C second temp	GIV-Gai inh	Sa growth 42C
Cc1ccc2occ(CC(=O)Nc3ccc(S(N)(=O)=O)cc3)c2c1
 : 13&-19	92	115&99	98
Cc1cccc(OCC(O)CN)c1 (stereo unspecified)
 : -23	85	102	89
O=C(NCc1ccccc1Cl)c1ccc(NC(=O)c2nsc3ccccc23)cc1
 : /	89	104	95
OC(CNCc1ccc2c(c1)OCO2)COc1ccc(F)cc1 (stereo unspecified)
 : -27	84	104	96
CC(Nc1ccc(-c2nc(-c3ccccn3)no2)cc1[N+](=O)[O-])c1ccccc1 (stereo unspecified)
 : -24	85	98	95
O=C1c2ccccc2C(=O)C1c1ccc(OC(F)F)cc1
 : -12	89	/	130
CC1CCCN(S(=O)(=O)c2ccc(-c3nc(C#N)c(NCCN4CCOCC4)o3)cc2)C1 (stereo unspecified)
 : -31	/	103	/
O=C(O)c1ccc(CSc2nc(-c3ccccc3)cc(C(F)(F)F)n2)cc1
 : /	75	102	85
O=C(Nc1cc(Cl)cc(Cl)c1)c1ccc(F)c(S(=O)(=O)N2CCN(c3ccccc3F)CC2)c1
 : /	91	97	99
CN(CC(=O)NCCc1ccc(S(N)(=O)=O)cc1)Cc1cccs1
 : -11	94	/	82
COc1ccc(-c2c3c(nc4sc(C(=O)Nc5ccc(F)cc5)c(N)c24)CC(C)(C)CC3=O)cc1
 : -10	88	109	111
O=S(=O)(NCc1ccccc1)c1cc(Br)c(Br)s1
 : 0	81	102	88
CCC1CCCCN1C(=O)Cn1c(=O)n(CCCCCC(=O)NCc2ccccc2)c(=O)c2sccc21 (stereo unspecified)
 : 11	89	105	94
CCC(C)C(=O)Nc1ccc(OC)cc1 (stereo unspecified)
 : -12	104	101	103
Cc1ccc(S(=O)(=O)N2CCN(Cc3nc4cc(C(=O)N5CCCCC5)ccc4o3)CC2)cc1Cl
 : -17	/	103	/
CCC(=O)N1CCc2cc(Br)cc(S(=O)(=O)N3CCCC(C(=O)Nc4cc(C)ccc4OC)C3)c21 (stereo unspecified)
 : 6	93	108	104
Cc1ccc(C(C(=O)NC2CCCC2)N2CCC3(CC2)OCCO3)cc1 (stereo unspecified)
 : -37	90	102	89
CC1(C)CC(NC(=O)CC(c2ccc(F)cc2)c2ccco2)CCO1 (stereo unspecified)
 : -31	85	104	93
CC(C)(C)NC(=O)Cn1c(-c2nonc2N)nc2ccccc21
 : -7	89	/	99
N#CC(C#N)=C(N)/C(C#N)=C/c1ccc(O)cc1
 : -48&-60	/	184	/
COC(=O)CNS(=O)(=O)Nc1ccc(-c2nc3ccc(C)cc3s2)cc1
 : -19	86	/	100
CN1CCCN(C(=O)C23CC4CC(C)(CC(C)(C4)C2)C3)CC1
 : 3	94	102	81
CN(Cc1ccccc1)S(=O)(=O)c1ncn[nH]1
 : -25	80	108	103
CC(C)(C)c1ccc(-c2nc3nc(CN4CCOCC4)cc(=O)n3[nH]2)cc1
 : -24	/	99	/
NC(=O)CSc1nc2ccccc2c(=O)n1Cc1ccco1
 : -27	99	99	88
COc1ccccc1CNc1ncnc2c1nnn2C
 : /	86	92	85
C=Cc1ccc(COC(=O)c2nnn(-c3cccc(F)c3)c2C)cc1
 : -27	/	101	/
CCCN(CCC)S(=O)(=O)c1ccc(C(=O)Oc2c(C)cccc2OC)cc1
 : 29	95	104	85
CC(C)CNC(=O)c1cnc2sc3c(n2c1=O)CCCC3
 : -23	/	105	/
CC1=NN(S(=O)(=O)c2ccccc2)C(O)(C(F)(F)F)C1 (stereo unspecified)
 : -26	79	100	94
CCC(C)C(NC(=O)c1ccccc1)c1nc2ccccc2[nH]1 (stereo unspecified)
 : -16	90	/	100
CCOc1ccc(NC(=O)c2ccc3c(c2)CCN3S(=O)(=O)CC)cc1
 : -2	96	99	99
O=C(/C=C/c1ccco1)NC(=S)Nc1ccc2ccccc2c1
 : -12	74	102	117
COc1ccc(C(CNC(=O)c2cc(-c3ccc4c(c3)OCCO4)on2)N2CCCC2)cc1 (stereo unspecified)
 : -13	/	108	/
O=C(O)c1ccc(-c2cccc(Cl)c2)o1
 : -39	82	104	70
Cc1ccc(NC(=O)C2CCC(CNC(=O)c3ccc(=O)[nH]c3)CC2)cc1 (stereo unspecified)
 : 4	94	/	111
CCOc1ccccc1C(=O)NC1CCN(Cc2nnnn2C2CCCC2)CC1
 : 10	69	103	93
